Compound activity as filed in PubChem BioAssay.
FGF22 binding = FGF22 (human) thermal shift binding; Q9HCT0; recombinant FGF22 thermal shift, SYPRO orange fluorescence; percent of sucrose octasulfate shift, DMSO zero; calls only at 9.99 µM; actives 1.5% (n = 340,000);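 active = melting point raised past a set limit in the mean and every replicate; inconclusive = no clear call; three in four hits are not shown here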
Target sequence (Q9HCT0 whole entry, looked up): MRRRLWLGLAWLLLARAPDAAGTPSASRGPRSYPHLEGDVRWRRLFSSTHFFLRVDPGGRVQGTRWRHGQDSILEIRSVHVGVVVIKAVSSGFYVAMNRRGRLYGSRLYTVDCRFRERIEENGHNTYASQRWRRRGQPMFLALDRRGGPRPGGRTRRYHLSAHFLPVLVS
MLL AF4-AF9 inh = inhibitors of human MLL-AF4/AF9 interaction; P42568; AlphaScreen, biotin-AF4 peptide binding to FLAG-AF9; inhibition, % at 10 µM; actives 0.47% (n = 350,000); AID 651704;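 active = every replicate reaching a set inhibition limit, whatever the replicate mean, cut at about 25% in these data; inconclusive = mean inhibition reaches that limit but some replicates miss it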;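 note: 0% = plate neutral control median and 100% = total signal loss; the record names both 10 and 1 µM as test concentration; the first replicate is given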
UCH37 DUB inh = inhibitors of human deubiquitinating enzyme UCH37; Q9Y5K5; purified proteasome/UCH37, Ub-AMC cleavage fluorescence; inhibition, % (test concentration not listed); actives 0.33% (n = 330,000); AID 588478;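 active = mean of two replicates above 20%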;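 note: 0% = compound-free wells with enzyme and 100% = wells lacking proteasome; stock transfer was 100 nL into about 20 µL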
Target sequence (Q9Y5K5 whole entry, looked up): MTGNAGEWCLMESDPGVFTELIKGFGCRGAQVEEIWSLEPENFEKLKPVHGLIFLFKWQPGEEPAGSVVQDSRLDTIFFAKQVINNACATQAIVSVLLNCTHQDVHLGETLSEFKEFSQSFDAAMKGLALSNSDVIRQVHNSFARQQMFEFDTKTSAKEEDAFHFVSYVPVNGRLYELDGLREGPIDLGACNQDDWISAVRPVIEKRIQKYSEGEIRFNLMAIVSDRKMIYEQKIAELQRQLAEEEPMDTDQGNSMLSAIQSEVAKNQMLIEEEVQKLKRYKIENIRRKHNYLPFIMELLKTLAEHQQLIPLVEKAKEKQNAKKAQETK
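Material: human UCH37 enzyme supplied as purified proteasome complex. Measure: % inhibition of Ub-AMC cleavage fluorescence. Medium: pH 7.4 Tris-HCl (50 mM) with ovalbumin, ATP-MgCl2, DTT. Times: 30 min preincubation with enzyme, 25 min cleavage at room temperature. Detection: AMC fluorescence intensity at 355/460 nm.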
RanGTP-Imp inh = inhibitors of RanGTP-importin-beta interaction, primary screen, biochemical, FRET, CFP-Ran, YFP-importin-beta, homogeneous | cell-free CFP-Ran/YFP-importin-beta FRET ratio | inhibition, % (no concentration beside the values) | actives 1.1% (n = 300,000);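 active = most replicates above 15%; inconclusive = exactly half above 15%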;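 note: 0% = DMSO wells and 100% = Ran loaded with GDP instead of GTP; wells of about 40 µL received 100 nL stock; the first replicate is given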
HNF4A DNA FP = change in binding of human HNF4 alpha to DNA. P41235. HNF4a-FITC DNA binding, fluorescence polarization, 1 h. AID 1224865. activity change, % at 10 µM. actives 0.3% (n = 360,000); in the data active = activity change above about 30%, passing the limit was not always enough;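 note: controls were the assay level and a saturating level of protein; the project sought stronger binding though the title names inhibitors; some compounds called inactive have numbers as strong as hits; positive values seem to mean higher polarization but the record does not say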
Target sequence (P41235 whole entry, looked up): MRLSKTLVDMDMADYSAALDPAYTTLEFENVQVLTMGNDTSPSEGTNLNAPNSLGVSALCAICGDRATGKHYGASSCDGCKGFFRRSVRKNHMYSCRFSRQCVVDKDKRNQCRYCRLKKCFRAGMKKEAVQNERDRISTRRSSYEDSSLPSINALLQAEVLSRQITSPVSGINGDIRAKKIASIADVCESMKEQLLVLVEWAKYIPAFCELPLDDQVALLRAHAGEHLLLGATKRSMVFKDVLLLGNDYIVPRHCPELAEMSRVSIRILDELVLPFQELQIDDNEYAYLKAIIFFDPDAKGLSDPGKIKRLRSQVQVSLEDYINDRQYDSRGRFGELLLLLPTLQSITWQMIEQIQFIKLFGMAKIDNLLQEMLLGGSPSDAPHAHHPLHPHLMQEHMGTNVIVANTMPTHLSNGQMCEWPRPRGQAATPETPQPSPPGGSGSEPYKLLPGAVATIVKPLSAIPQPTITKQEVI
Vif TR-FRET = inhibitors of Vif binding to APOBEC3G peptide, primary screen, biochemical, TR-FRET, GST-Vif 1-94, biotin-A3G peptide, dose response retest (AID 1117319). TR-FRET GST-Vif / biotin-A3G peptide binding; higher % means a stronger effect; test concentration not given here; strong numbers were not always called active. one-dose inhibition, %; IC50 in µM for titrated hits. actives 0.57% (n = 260,000);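 active = above the screen mean plus three standard deviations and confirmed in dose response; inconclusive = results disagree or hit not tested in dose response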;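 note: Vif residues 1-94 fused to GST binding biotinylated APOBEC3G peptide 110-148; 0% = full assay without inhibitor and 100% = GST in place of GST-Vif; retest series ran down from 100 µM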
E coli growth = inhibitors of Escherichia coli growth; OD600, 23 h; stronger effect = lower value; OD600 absorbance (test concentration not listed); actives 0.21% (n = 330,000);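 active = OD600 absorbance below the run mean of sample wells minus 3.6 SD, in any replicate, cut at about 0.56 in these data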;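 note: stock transfer was 300 nL into about 60 µL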
* hit, by the source's call; i = inactive; u = inconclusive; x = not tested or not shown. A portion of the library; count on the stated rates, not on these rows.

Below each SMILES: Vif TR-FRET, FGF22 binding, E coli growth, RanGTP-Imp inh, UCH37 DUB inh, MLL AF4-AF9 inh, HNF4A DNA FP
O=C(NCCC1=CCCCC1)C1CC(=O)N(C2CCCCCC2)C1 (stereo not drawn)
  6%, i, 0.65, 6.7, 12, -33, 2.5
Cc1ccc(C(=O)C[n+]2cccc(C(N)=O)c2)cc1
  -2%, i, 0.62, 0.1, 3.1, -0.3, 0.1
COC(=O)[C@H](Cc1ccccc1)NC(=O)N1CCN(Cc2ccccc2)CC1
  -2%, x, 0.68, 3.3, -1.1, x, -3.1
CC(C)(C)NC(=O)CN(CCN1CCOCC1)C(=O)CNS(=O)(=O)c1ccccc1
  x, i, 0.7, -0.5, 2.3, -0.5, -1.3
CC(=O)c1cccc(NC(=O)c2ccc(NC(=O)CC3SC(N4CCCCC4)=NC3=O)cc2)c1 (stereo not drawn)
  x, i, 0.7, -1.1, 0.5, -2.7, 1.2
COCCn1cnc2cc(C)c(C)cc21
  -2%, x, 0.64, 4.3, x, x, 5.3
CCCCn1c(Cc2ccccc2)n[nH]c1=S
  0%, x, 0.71, u, 1.6, x, 4.9
COc1ccccc1Cn1c(/C=C/c2ccccc2)nc2ccccc21
  x, x, 0.74, -3.6, i, x, 2.1
Cc1cnc(C(=O)OC(C)C(=O)Nc2ccc(Oc3ccccc3)cc2)cn1 (stereo not drawn)
  -3%, i, 0.69, x, 0.2, -4.8, 0.1
O=C(CCc1nc(-c2ccc(F)cc2)no1)Nc1cccc(C(=O)NC2CC2)c1
  x, i, 0.66, x, 1.7, 1.4, -5.6
COc1ccc(C)cc1-n1cnnn1
  x, i, 0.61, 1.2, 3.7, -0.8, 1.8
COc1ccc(C(=O)NNC(=O)c2ccc(S(=O)(=O)N3CC(C)OC(C)C3)cc2)cc1 (stereo not drawn)
  5%, i, 0.67, 2.5, 3.1, -0.4, 0.3
O=C(CCCn1c(=S)[nH]c2ccccc2c1=O)NCCSCc1ccccc1
  2%, i, 0.74, -2.9, 1.5, -1.7, -1.1
CCCCOC(=O)Nc1ccc(C(=O)OCCC)cc1
  13%, x, 0.65, 1.5, 1.7, x, -2.7
N#C/C(=C(/O)CCCl)c1ccccn1
  4%, x, 0.7, 21*, -240, x, -1.6
COc1cc(C(=O)/C=C/Nc2ccc(NC(C)=O)cc2)cc(OC)c1OC
  x, x, 0.7, -0.3, 9.5, x, 6.1
CC1=NCCN1S(=O)(=O)c1cc(Cl)ccc1Cl
  7%, x, 0.65, 4.6, 2.3, x, 0.2
CCN(CC)CCCN(Cc1cc2cc3c(cc2[nH]c1=O)OCO3)C(=S)NCCCN(C)C
  x, i, 0.67, 0.6, -146, 0.3, 2.8
Cc1cc(NC(=O)Cn2nc(C)c([N+](=O)[O-])c2C)no1
  6%, i, 0.65, -0.3, 6.3, 3.9, 0.6
Cc1ccccc1NC(=O)c1cc2ccccn2n1
  6%, i, 0.7, -3.3, 4.5, -111, 1.4
O=C(Nc1cccc2ccccc12)N1CCOCC1
  -5%, x, 0.69, 2.0, -1.9, x, 4.2
Cc1ccc(CC(=O)NCC(c2ccco2)N(C)C)cc1C (stereo not drawn)
  u, i, 0.69, -2.1, -0.7, -2.9, -0.4
CCC1CCCCN1Cc1nc2c(c(=O)n(C)c(=O)n2C)n1CC(C)C (stereo not drawn)
  x, i, 0.71, 4.6, 4.4, 0.5, -2.3
O=[N+]([O-])c1ccc2[nH]ccc2c1
  x, i, x, x, x, -1.6, -4.8
CCc1c(O)nc(SC2CC(=O)N(c3ccccc3)C2=O)[nH]c1=O (stereo not drawn)
  2%, x, 0.69, 4.4, -1.1, x, 0.0
CC(=Nc1ccc(Br)cc1)c1sc2ccccc2c1O
  6%, i, 0.71, 49*, -6.6, -0.1, 17
Cc1ccc(CSc2nnc(-c3ccco3)o2)cc1
  67%, x, x, -0.6, x, x, 0.5
COc1ccc(-c2nnc(SC(C)C(=O)Nc3c(C)n(C)n(-c4ccccc4)c3=O)o2)cc1 (stereo not drawn)
  -1%, x, 0.73, -1.3, 4.9, x, 1.3
COc1cc(NC(=O)Nc2cccc([N+](=O)[O-])c2)cc(OC)c1
  3%, x, 0.69, 3.6, 5.8, 1.2, 0.5
COc1ccc(NC(=O)CN(c2ccc([N+](=O)[O-])cc2)S(=O)(=O)c2ccccc2)c(OC)c1
  x, i, 0.64, -1.3, 3.2, 7.2, -1.1
COc1cc(C(C)=O)ccc1OC(=O)C(C)N1C(=O)c2ccccc2C1=O (stereo not drawn)
  11%, x, 0.68, 7.0, 4.5, x, 2.7
CCC(=O)N(CCc1ccccc1)Cc1cc2cc3c(cc2[nH]c1=O)OCO3
  -6%, x, 0.68, -6.9, -105, x, 3.6
COc1ccc(C2=NOC(C(=O)Nc3ccc4c(c3)OCO4)C2)cc1OC (stereo not drawn)
  x, i, 0.73, -2.3, 2.6, 1.3, -2.3
COc1cc(/C=N/NC(=O)c2ccc3c(c2)OCCO3)cc(Cl)c1O
  13%, i, x, 2.6, x, 1.2, 5.0
CCc1cccc(NC(=O)c2cc(S(=O)(=O)N(C)C)ccc2N2CCCC2)c1
  -7%, i, 0.7, -2.2, 1.6, 0.3, 3.9
CCOC(=O)C1=NNC(C(=O)c2ccc(OC)cc2)C1c1ccccc1 (stereo not drawn)
  10%, x, 0.72, -1.8, 2.2, x, 1.0
Cc1cccc(Nc2nnc(C)c(=O)n2N)c1
  2%, i, 0.65, 4.4, 3.3, -36, -3.2
ClC(=C\c1ccccc1)/C=N/N1CCN(c2ccccn2)CC1
  0%, x, x, -0.1, x, x, 1.2
C[C@]12c3[nH]c4ccccc4c3CCN1C(=O)C(CC(=O)NCC13CC4CC(CC(C4)C1)C3)C[C@@H]2C(=O)N1CCCCC1 (stereo partly drawn)
  -1%, i, 0.72, x, -1.1, 10, -2.7
CC1CC(=O)Nc2ccccc2N1C(=O)COc1ccccc1C(N)=O (stereo not drawn)
  0%, i, x, x, x, -2.8, -0.7
CC(=O)OC[C@@H]1CN(Cc2ccccc2)C[C@H](n2cnc3c(N(C)C(C)C)ncnc32)O1
  x, i, x, x, x, -2.5, 1.8
CN(Cc1nc2ccccc2c(=O)[nH]1)C(=O)c1cc2c(s1)CCCCC2
  -6%, i, 0.68, x, 2.0, -1.8, -4.2
CCN1CCN(Cc2ccc(NC(=O)c3ccc(C)c(NC(=O)c4ccc5n[nH]nc5c4)c3)cc2C(F)(F)F)CC1
  -3%, i, 0.72, -1.7, 0.3, 0.7, 1.2
CCOC(=O)NC(=O)CSc1nc2ccc(C)cc2[nH]1
  8%, x, 0.67, -5.6, 1.2, -0.9, -3.4
Fc1cccc(Cl)c1/C=C/c1cnc2ccccc2n1
  x, i, 0.68, 12, -31, 3.6, 3.2
CCOc1ccc2[nH]c(=O)c(CN(CC3CCCN3CC)C(=O)NCc3ccccc3)cc2c1 (stereo not drawn)
  19%, x, 0.75, -1.8, -13, x, 0.7
CC(C)OC(=O)CSc1nnc(SCc2cccc3ccccc23)s1
  2%, x, 0.72, 3.1, 2.7, x, 1.0
O=C(CCC(=O)N(CC(=O)NC1CCCC1)Cc1ccc(F)cc1)Nc1nccs1
  x, i, 0.71, 0.1, 0.4, -6.1, -0.2
CN(C(=O)COC(=O)c1ccc2ccccc2n1)c1ccccc1
  1%, i, 0.68, x, -2.8, -2.8, 0.7
Cc1ccc(SCC2CNc3nc4ccccc4c(=O)n32)c(C)c1 (stereo not drawn)
  3%, x, 0.74, -2.1, 5.5, x, -1.1
COc1cc(NC(=O)Nc2nnc([C@@H]3C[C@H](O)[C@@H](CO)O3)s2)cc(OC)c1OC
  x, i, x, x, x, 1.1, -1.9
Cc1cc(NC(=O)C(C)SCC(=O)OC(C)C(=O)Nc2cccc(C#N)c2)no1 (stereo not drawn)
  25%, i, 0.7, -0.7, 2.6, -0.8, -2.0
Fc1ccc(C(c2nnnn2CCc2ccccc2)N2CCCc3ccccc32)cc1 (stereo not drawn)
  30%, x, 0.75, 2.8, 4.0, x, -1.8
COc1ccc(C(=O)NC(=S)Nc2ccccc2F)cc1
  x, x, 0.72, 6.2, 1.1, x, 0.9
Cc1cc(C)c(C#N)c(Nc2cccc(Br)c2)n1
  x, i, 0.63, 0.2, -2.7, 2.7, 0.2
COc1cc2cc(CCOC(=O)c3ccc(C(F)(F)F)cc3)oc(=O)c2cc1OC
  x, x, 0.8, x, 1.1, x, 4.5
CS(=O)(=O)N(Cc1ccc(F)cc1)Cc1nc2ccccc2c(=O)[nH]1
  -10%, x, 0.74, -0.8, 0.1, x, -2.8
COc1ccccc1NS(=O)(=O)c1cccc(C(=O)N/N=C/c2ccc([N+](=O)[O-])o2)c1
  23%, i, x, x, x, -12, 0.9
Cc1nc2cc(-c3ccccc3)nn2c(C)c1CCC(=O)NCc1ccco1
  -7%, i, 0.7, 1.7, -6.8, -0.1, -3.4
Cc1ccc(NC(=O)CCNC(=O)c2ccccc2Cl)cc1S(=O)(=O)N(C)C
  x, x, 0.68, 1.4, 4.6, x, 0.0

The listing continues.
Below each SMILES: Vif TR-FRET, FGF22 binding, E coli growth, RanGTP-Imp inh, UCH37 DUB inh, MLL AF4-AF9 inh, HNF4A DNA FP
COc1ccc(-c2onc(C)c2-c2ccccc2)c(O)c1
  25%, x, 0.76, -3.4, 2.5, x, -1.4
COc1ccccc1N(CC(=O)N1CCCCCC1)S(=O)(=O)c1ccc(C)cc1
  x, i, 0.69, -1.1, 3.8, 5.0, 1.6
CCn1c2ccccc2c2cc(/C=N/NC(=O)c3cc(O)cc(O)c3)ccc21
  x, i, x, -3.2, x, 5.6, 1.2
O=C(CSc1nc2[nH]ncc2c(=O)n1-c1ccccc1Cl)N1CCCC1
  x, i, 0.68, -2.0, -0.2, -14, 2.4
Cc1nn(C)c(C(=O)Sc2cccc(Cl)c2)c1[N+](=O)[O-]
  23%, i, 0.61, 1.7, 6.8, -8.6, -2.3
N#Cc1ccccc1CSc1nc(N2CCCCC2)nc(N2CCCCC2)n1
  6%, x, 0.73, 9.1, 1.5, x, 2.3
Cc1ccc(OCC(=O)N2CCCCCCC2)cc1C
  x, i, 0.72, 0.7, 5.1, -5.7, 1.1
Cn1c(C(=O)c2ccccc2)nc2ccccc21
  -8%, i, 0.65, 6.7, 6.1, 1.4, 8.3
COc1ccc(/C=N/N=C(\N)c2nonc2N)cc1OC
  u, i, x, -1.9, x, 0.6, 0.5
O=C(CCNC(=O)c1ccccc1Cl)Nc1nc(-c2ccc(F)cc2)cs1
  x, i, 0.69, -3.1, 0.2, 1.9, -0.4
CCOC(=O)C1=C(N)N(c2ccccc2)C2=C(C(=O)CCC2)C1c1cccnc1 (stereo not drawn)
  -11%, x, 0.7, -4.3, 8.1, x, 7.8
O=C(NCCN1CCOCC1)c1cc(-c2cccs2)nc2ccccc12
  x, i, 0.68, -1.6, i, 0.4, 4.0
CCOc1cc(/C=N/N2CCOCC2)ccc1OCc1ccc(C(=O)OC)o1
  -3%, i, x, 1.0, x, 0.7, -7.4
CC(C)(C)N(Cc1nc(-c2ccccc2)no1)C(=O)c1ccc2c(c1)OCO2
  x, i, 0.65, 0.2, 0.9, -1.5, 2.1
CCOc1ccc(C(=O)c2cc([N+](=O)[O-])ccc2Cl)cc1
  -1%, x, 0.77, 0.8, 3.8, x, -1.6
CCN(CC)C(=O)c1ccc(NS(=O)(=O)c2ccc(/C=C/C(=O)O)cc2)cc1
  x, i, 0.64, 5.8, -0.2, -1.4, 1.2
CC(C)(C)c1ccc(OCCNC(=O)c2ncn[nH]2)cc1
  6%, x, 0.73, -3.0, 0.1, x, 7.2
